Bioassay records as filed in PubChem.
Marburg entry inh – blocks Marburg virus binding to or entry into cells. Marburg virus pseudotyped entry inhibition, cell reporter; control for the full effect not named in the record; about a third of the inactives were read at about 46 µM. hit rate 1.8% among 300,000. AID 540276. Potency, µM (top dose mostly 37.8 µM), without a hit: top-dose activity change, negative = inhibition, most hits filed as inhibitors; active = well fitted inhibition curve with a large enough effect; inconclusive = small, poorly fitted or top-dose-only effect, or effect the other way; inactive = flat fitted curve, though single readings scatter; tested in HEK293 cells; about a fifth of its hits are not listed in these tables; also: % is scaled to controls: 0 for no effect and ±100 for the full control effect; luciferase read-out
2A StopGo – FMDV 2A StopGo reporter, luciferase signal; human cells with a luciferase reporter of 2A StopGo recoding; control for the full effect not named in the record; Potency, µM (doses to about 57.9 µM), without a hit: at the top dose signal change, negative = less light; hit rate 1.2% among 410,000; active = well fitted falling curve with a large enough effect; inconclusive = small, poorly fitted or top-dose-only effect; inactive = no such curve, though single readings can be large or run the other way; tested in HEK293T cells; also: % is scaled to controls: 0 for no effect and ±100 for the full control effect; nearly all actives have a fitted effect of over 45% in size; luciferase light after 4 h
NS1 function inh – influenza NS1 inhibition; S. cerevisiae slowed by influenza A NS1, growth recovery by OD600; Potency, µM (series often up to 46.1 µM), for the others: at the top dose activity, positive = more growth; hit rate 0.4% among 270,000; AID 2326; active means well fitted rising curve with a large enough effect; inconclusive means small, poorly fitted or top-dose-only effect; inactive means no such curve, though single readings can be large or run the other way; also: nearly all actives have a fitted effect of over 50% in size
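Growth recovery, yeast-based: influenza A NS1 expressed in S. cerevisiae causes slow growth, and suppressors are detected by OD600. The parent strain without NS1 is used as positive control.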
SARS PLP yeast – SARS-CoV PLP inhibition in yeast; S. cerevisiae expressing SARS-CoV PLpro, growth rescue; control for the full effect not named in the record; Potency, µM (top dose mostly 32.9 µM), for inactives: top-dose activity, positive = growth rescue; hit rate 0.19% among 330,000; active means well fitted rising curve with a large enough effect; inconclusive means small, poorly fitted or top-dose-only effect; inactive means no such curve, though single readings can be large or run the other way; also: 0% is about no effect; nearly all actives have a fitted effect of over 55% in size; growth read by luminescence after 48 h
Cruzain noTriton – blocks cruzain activity in detergent-free assay; P25779; purified cruzain, Z-FR-AMC fluorescence, no detergent; Potency, µM, without a hit: max response, negative = inhibition, actives largely listed as inhibitors; hit rate 2.3% among 200,000;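 also: plate controls were enzyme without inhibitor for no effect and buffer without enzyme for full effect; nearly all actives have a fitted effect of over 40% in size; top concentration of the series not given in the record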
Target sequence (P25779 123-467 limits assumed): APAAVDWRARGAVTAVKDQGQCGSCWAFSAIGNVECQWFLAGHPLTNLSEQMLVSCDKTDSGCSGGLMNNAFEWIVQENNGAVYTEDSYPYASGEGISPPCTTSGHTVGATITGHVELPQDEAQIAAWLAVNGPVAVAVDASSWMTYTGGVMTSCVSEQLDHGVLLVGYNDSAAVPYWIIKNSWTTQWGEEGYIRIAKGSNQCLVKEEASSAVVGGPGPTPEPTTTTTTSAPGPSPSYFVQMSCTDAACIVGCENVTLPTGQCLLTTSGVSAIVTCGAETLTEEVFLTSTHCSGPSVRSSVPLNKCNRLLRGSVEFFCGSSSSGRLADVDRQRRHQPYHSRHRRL
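Purified cruzain at 1.5 nM, pre-incubated 15 min with compound at room temperature in 100 mM sodium acetate pH 5.5, 5 mM DTT, 0.00005% Triton X-100. Reaction started with 2 uM Z-FR-AMC; AMC fluorescence increase over 60 s gives rate.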
Cruzain Triton – blocks cruzain activity in presence of Triton detergent | P25779 | purified cruzain, Z-FR-AMC fluorescence, 0.01% Triton | Potency, µM, for inactives: max response, negative = inhibition, usual class: inhibitors | hit rate 0.43% among 200,000 | AID 1478;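 also: plate controls were neutral wells for no effect and buffer without enzyme for full effect; nearly all actives have a fitted effect of over 40% in size; top concentration of the series not given in the record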
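Purified cruzain (1.5 nM final) was preincubated with compounds for 15 min at room temperature in 100 mM sodium acetate pH 5.5, 5 mM DTT, 0.01% Triton X-100. Reaction started with 2 uM Z-FR-AMC; AMC fluorescence change over 60 s gave activity.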
LASV entry inh – blocks Lassa virus binding to or entry into cells; Lassa virus pseudotype entry inhibition, cell reporter; control for the full effect not named in the record; Potency, µM (top dose mostly 37.9 µM), for the others: at the highest dose activity change, negative = inhibition, most hits filed as inhibitors; hit rate 1.2% among 300,000; AID 540256; active means well fitted inhibition curve with a large enough effect; inconclusive means small, poorly fitted or top-dose-only effect, or effect the other way; inactive means flat fitted curve, though single readings scatter; tested in HEK293 cells; also: % is scaled to controls: 0 for no effect and ±100 for the full control effect; nearly all actives have a fitted effect of over 50% in size; luciferase read-out
RE007 growth inh – less growth of the S. pombe RE007 Vpr strain; S. pombe RE007 Vpr strain, BacTiter-Glo ATP luminescence, 24 h; control for the full effect not named in the record; Potency, µM (series often up to 92.2 µM), without a hit: at the highest dose activity change, negative = less growth; hit rate 0.21% among 360,000; AID 651644; active = well fitted falling curve with a large enough effect; inconclusive = small, poorly fitted or top-dose-only effect; inactive = no such curve, though single readings can be large or run the other way;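 also: % is scaled to controls: 0 for no effect and ±100 for the full control effect; nearly all actives have a fitted effect of over 50% in size; the assay follows cell death caused by Vpr and the record does not say whether a fall means rescue or toxicity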
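Fission yeast RE007 carrying one integrated HIV-1 vpr copy, seeded at OD 0.01 in PMG+AL medium with 23 nL pinned compound. Grown 24 h at 30 degrees; viability read by BacTiter-Glo luminescence after 5 min.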
* marks the source's active call; other numbers are inactive results; u = inconclusive; x = not tested or not shown; & = joins results of further samples; [ ] = dose if it differs, or a comment. Unless noted, calls follow the shape of the dose curve; as a rule, active = well fitted curve in the direction sought with a large enough effect; inconclusive = small, poorly fitted or top-dose-only effect, or another doubt; inactive = no such curve, though single readings can be large; an effect the other way counts as inactive or inconclusive. Potency is read from the fitted curve at half-maximal effect.

SMILES	Marburg entry inh	2A StopGo	NS1 function inh	SARS PLP yeast	Cruzain noTriton	Cruzain Triton	LASV entry inh	RE007 growth inh
CCOC(=O)CNC(=O)CSc1nnc(COc2ccc(Cl)cc2)n1CC	1%	-6%	2%	-4%	15%	1.3%	-6%	19%
COc1cccc(C(Nc2ccccn2)c2oc(CO)cc(=O)c2O)c1 (stereo not drawn)	-4%	-16%	x	11µM*	x	x	4%	21%
COc1cccc(N2CCN(S(=O)(=O)c3ccc(-c4ccno4)cc3OC)CC2)c1	x	-24%	x	x	9%	0.7%	u	x
O=C(N/N=C/c1ccc(OCC2COCCO2)cc1)c1ccc(Br)cc1 (stereo not drawn)	-18%[46.1 µM]	-10%	-6%	1%	x	x	-21%	2%
CC(C)(C)C(=O)Nc1nc2c(c(=O)[nH]1)CCCC2	0%[46.1 µM]	-6%	x	-1%	x	x	11%[46.1 µM]	0%
COc1ccc(Br)cc1CNC(=O)CCC(=O)N1CCSc2ccccc21	x	-21%&-8%	-9%	-3%	-3%	-4.4%	-1%[46.1 µM]	-11%
O=C(NCCCn1ccnc1)C1CCCN(S(=O)(=O)c2ccc(F)cc2)C1 (stereo not drawn)	14%[46.1 µM]	-2%	11%	1%	x	x	-14%	3%
CCN(CC)CCN1C(=O)C2C(C(=O)Nc3cccc(SC)c3)C3C=CC2(O3)C1C(=O)NC1CCCC(C)C1C (stereo not drawn)	u	-10%	-3%	-1%	x	x	4%[46.1 µM]	5%
CCOc1ccc(N(CC(=O)Nc2ccc(C)c(Cl)c2)S(C)(=O)=O)cc1	x	37%[activator]	-4%	-3%	x	x	x	2%
Cn1c(=O)n(C)c2cc(NC(=O)COc3ccccc3)ccc21	x	-17%	-9%	-1%	x	x	x	5%
CN(C)c1ccc(C=NN2CCCCCC2)cc1	u	-20%	x	x	x	x	u	4%
COc1cc(-c2nc(S(=O)(=O)c3ccc(C)cc3)c(N3CCOCC3)o2)cc(OC)c1OC	4%	10%	2%	-10%	u	-1.9%	-7%	39%

Part of the list above in order of formula weight, highest first.
SMILES	Marburg entry inh	2A StopGo	NS1 function inh	SARS PLP yeast	Cruzain noTriton	Cruzain Triton	LASV entry inh	RE007 growth inh
CCN(CC)CCN1C(=O)C2C(C(=O)Nc3cccc(SC)c3)C3C=CC2(O3)C1C(=O)NC1CCCC(C)C1C (stereo not drawn)	u	-10%	-3%	-1%	x	x	4%[46.1 µM]	5%
COc1cc(-c2nc(S(=O)(=O)c3ccc(C)cc3)c(N3CCOCC3)o2)cc(OC)c1OC	4%	10%	2%	-10%	u	-1.9%	-7%	39%
COc1ccc(Br)cc1CNC(=O)CCC(=O)N1CCSc2ccccc21	x	-21%&-8%	-9%	-3%	-3%	-4.4%	-1%[46.1 µM]	-11%
Cn1c(=O)n(C)c2cc(NC(=O)COc3ccccc3)ccc21	x	-17%	-9%	-1%	x	x	x	5%

More compounds.
SMILES	Marburg entry inh	2A StopGo	NS1 function inh	SARS PLP yeast	Cruzain noTriton	Cruzain Triton	LASV entry inh	RE007 growth inh
Cc1cc(C)cc(-n2c(N)c(C(=O)Nc3c(C)n(C)n(-c4ccccc4)c3=O)c3nc4ccccc4nc32)c1	20%	-10%	14%	-22%	u	-7.8%	2%	-28%
CC1(C)Cc2c(sc3c4nnnn4c4nnnn4c23)CO1	4%	x	10%	-2%	-6%	-0.4%	x	x
O=C(Nc1cc(C(F)(F)F)ccc1N1CCCCC1)c1ccco1	u	0%	-3%	-2%	-8%	-6.6%	2%	2%
O=C(O)CSc1ncnc2c1sc1nc(-c3ccccc3)c3c(c12)CCC3	x	12%	-3%	-1%	x	x	x	1%
Cc1ccccc1NC(=S)N1CCOCC1	12%	6%	5%	24%	2%	1.2%	-1%	1%
COc1ccc(NC(=O)c2cc3c(s2)-c2c(C)cccc2OC3)c(OC)c1	8%[46.1 µM]	-2%	x	x	u	-5.3%	x	x
CCC(C)n1c(=S)[nH]c2c(sc3ccc([N+](=O)[O-])cc32)c1=O (stereo not drawn)	-7%	35µM*	11%	-47%	-27%	-8.0%	0%	4%
O=C(c1ccc(Cl)c(NC2=NC3CS(=O)(=O)CC3S2)c1)N1CCN(c2ccc(F)cc2)CC1 (stereo not drawn)	6%[46.1 µM]	-13%	-16%	0%	x	x	7%[46.1 µM]	-2%
Cc1ccc(NC(=O)Cc2n[nH]c(=S)n2C)cc1	16%[46.1 µM]	-3%	x	2%	x	x	13%[46.1 µM]	10%
Cn1c(COc2ccccc2)nnc1SCC(=O)NC1CCCC1	-13%[46.1 µM]	5%	6%	4%	x	x	10%[46.1 µM]	-15%
O=C(NC1CCCN(c2ccc(C(F)(F)F)cn2)C1)c1ccncc1 (stereo not drawn)	x	15%	-59%	-9%	x	x	x	3%
COc1cc2c(cc1O)[C@H](Cc1ccc(Oc3cc(C[C@@H]4NCCc5cc(OC)c(O)cc54)ccc3O)cc1)NCC2	u	x	17%	12%	-20%	-11%	4%	x
Cc1nc(NCCc2ccc(F)cc2)c2nnn(Cc3ccccc3)c2n1	2%[46.1 µM]	20%	-1%	4%	x	x	0%[46.1 µM]	1%
Cc1ccc(CCNC(=O)C2CCN(S(=O)(=O)c3ccc4nc5c(c(C(=O)O)c4c3)CCCC5)CC2)cc1	x	-3%	12%	0%	x	x	x	7%
CCOc1ccc2oc(C(=O)OCC(=O)NC3CC3)c(C)c2c1	u	-2%	x	0%	x	x	0%[46.1 µM]	-3%
O=C(CSc1nnc(Cc2cccs2)n1-c1ccccc1)NCc1ccc2c(c1)OCO2	-1%	-19%	-23%	-2%	-5%	-2.8%	-28%	-19%
CCOCCCNC(=O)C(c1ccc(C)cc1)N(Cc1ccc2c(c1)OCO2)C(=O)c1ccccc1O (stereo not drawn)	u	55%[activator]	x	x	u	-5.3%	-25%[46.1 µM]	x
CCOc1ccc(CNC(=O)c2cnc3sc(N4CCCCCC4)nn3c2=O)cc1OC	x	-14%	x	x	7%	-0.1%	-5%[46.1 µM]	x
O=C(Nc1ccc(S(=O)(=O)NCc2ccco2)cc1)c1ccc2ccccc2n1	u	-14%	2%	4%	-16%	-12%	2%	-9%
O=C(/C=C/c1cccc(F)c1)OCC(=O)N1CCCC1	u	0%	x	27%	x	x	5%	14%
CCc1c(C)c2ccc(O)c(CN3CCN(c4ccc(OC)cc4)CC3)c2oc1=O	u	u	x	x	-4%	-4.9%	8%[46.1 µM]	x
O=C(O)CCC(=O)N1N=C(c2ccc(Br)cc2)CC1c1ccc(Br)cc1 (stereo not drawn)	-1%[46.1 µM]	-11%	u	7%	x	x	-3%[46.1 µM]	14%
CC(=O)c1c(C)n(C)c2ccc(OC(=O)c3ccc([N+](=O)[O-])cc3)cc12	x	-5%	2%	0%	x	x	x	-9%
N#Cc1ccc(OCc2nnc(SCC(=O)N3CCCc4ccccc43)n2-c2ccccc2)cc1	18µM*	-29%	0%	2%	8%	3.0%	26µM*	3%
Cn1c(=O)c2[nH]c(CCCc3nc4ccccc4[nH]3)nc2n(C)c1=O	1%	-15%	x	x	x	x	11%	6%
CCOC(=O)c1cc2c(=O)n3ccccc3nc2n(CCOC)c1=NC(=O)c1ccncc1	-2%&-2%	0%	0%	-1%	8%	-20%	-1%	-6%
COc1ccc(C2(C(=O)Nc3cc(C)on3)CCOCC2)cc1	18%	-14%	-3%	10%	-19%	1.6%	1%	3%
N#C/C(=C/c1ccc(-c2ccc(Br)cc2)o1)C(=O)NC1CCCCC1	u	-6%	-4%	-14%	-25%	-5.7%	u	9%
Cc1cccn2c(=O)c(C=O)c(NCc3ccccc3)nc12	x	-20%	-7%	0%	x	x	x	-15%
Cc1ccn(C(=O)c2ccc(NC(=O)CC(C)C)cc2)n1	6%	8%	-7%	0%	x	x	1%	-1%
COc1cc(C(Nc2ccc(S(=O)(=O)N3CCC(C)CC3)cc2)C(=O)NCC2CCCO2)cc(OC)c1OC (stereo not drawn)	14%&6%	-14%	3%	-1%	u	-2.9%	-3%&-17%	2%
CCOc1cc2[nH]c(=S)n(CCCC(=O)NCc3ccccn3)c(=O)c2cc1OCC	x	-3%	6%	5%	x	x	x	6%
COc1ccc(NS(=O)(=O)c2cccc(C(=O)NCc3ccccn3)c2)cc1	3%	21%	x	0%	x	x	2%	-19%
Cn1c(C(=O)NCc2ccccc2F)cc2cc(S(=O)(=O)N3CCCCC3)ccc21	x	-22%	x	x	1%	-2.5%	-8%[46.1 µM]	x
COn1c(-c2ccccc2)nc2ccc(Cl)cc21	u	15%	-101%	-13%	1%	-1.8%	6%	-25%
COC(=O)CSc1ccc2nnc(CCNS(=O)(=O)c3ccccc3)n2n1	x	-5%&5%	x	2%	-6%	-2.1%	17%[46.1 µM]	18%
COc1ccc(C(=O)NCc2nnc(SCC(=O)Nc3ccc(C)cc3)n2-c2ccccc2)cc1	4%[46.1 µM]	16%	x	x	34%	-1.5%	u	x
CNS(=O)(=O)c1cn(CC(=O)N(C)Cc2ccccc2)cc1S(=O)(=O)NC	x	3%	-1%	2%	x	x	x	-13%
COc1ccc(OC)c(NC(=O)CSc2n[nH]c(-c3cccnc3)n2)c1	4%[46.1 µM]	-14%	2%	2%	x	x	-7%	2%
CCNC(=S)NNC(=O)CSc1nc2ccccc2n1C	-19%	-18%	1%	-1%	x	x	11%	-19%
O=C(CSc1nc2ccccc2o1)Nc1ccc(N2CCOCC2)c(Cl)c1	u	u	-63%	-14%	9%	-6.7%	6%	24%
O=[N+]([O-])c1ccc(N2CCN(c3ccccc3Cl)CC2)cn1	0%[46.1 µM]	-11%	-19%	10%	x	x	-16%	-7%
CCN(Cc1ccccc1)S(=O)(=O)c1ccc2[nH]c3c(c2c1)CCCCC3	x	-1%	x	x	-21%	-5.2%	-11%[46.1 µM]	x
COC(=O)CC1(c2cccc3ccccc23)C(=O)c2ccccc2C1=O	u	-12%	-4%	-8%	-20%	2.8%	u	0%
Cc1c(NS(=O)(=O)c2ccc(C(C)(C)C)cc2)c(=O)n(-c2ccccc2)n1C	-6%[46.1 µM]	1%	x	x	-6%	-7.5%	-2%[46.1 µM]	x
